StopGo reporter: lowers the luciferase signal of an FMDV 2A StopGo reporter; human cells with a luciferase reporter of 2A StopGo recoding; control for the full effect not named in the record; Potency, µM (top dose mostly 57.9 µM), for the others: at the top dose signal change, negative = less light; actives 1.2% (n = 410,000); AID 1159524; active = well fitted falling curve with a large enough effect; inconclusive = small, poorly fitted or top-dose-only effect; inactive = no such curve, though single readings can be large or run the other way; tested in HEK293T cells; note: % is set by controls: 0 for no effect and ±100 for the full control effect; nearly all actives have a fitted effect of over 45% in size; luciferase light after 4 h
LASV entry inh: blocks Lassa virus binding to or entry into cells | Lassa virus pseudotype entry inhibition, cell reporter; control for the full effect not named in the record | Potency, µM (series often up to 37.9 µM), without a hit: top-dose activity change, negative = inhibition, hits mostly inhibitors | actives 1.2% (n = 300,000) | AID 540256; active means well fitted inhibition curve with a large enough effect; inconclusive means small, poorly fitted or top-dose-only effect, or effect the other way; inactive means flat fitted curve, though single readings scatter; tested in HEK293 cells; note: % is set by controls: 0 for no effect and ±100 for the full control effect; nearly all actives have a fitted effect of over 50% in size; luciferase read-out
SARS PLpro yeast: blocks SARS-CoV papain-like protease in a yeast assay; S. cerevisiae expressing SARS-CoV PLpro, growth rescue; control for the full effect not named in the record; Potency, µM (series often up to 32.9 µM), inactives show at the top dose activity, positive = growth rescue; actives 0.19% (n = 330,000); note: 0% is about no effect; nearly all actives have a fitted effect of over 55% in size; growth read by luminescence after 48 h
RE007 growth inh: less growth of the S. pombe RE007 Vpr strain. AID 651644. Potency, µM (highest dose often 92.2 µM), for inactives: at the highest dose activity change, negative = less growth. S. pombe RE007 Vpr strain, BacTiter-Glo ATP luminescence, 24 h; control for the full effect not named in the record. actives 0.21% (n = 360,000); active = well fitted falling curve with a large enough effect; inconclusive = small, poorly fitted or top-dose-only effect; inactive = no such curve, though single readings can be large or run the other way;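 note: % is set by controls: 0 for no effect and ±100 for the full control effect; nearly all actives have a fitted effect of over 50% in size; the assay follows cell death caused by Vpr and the record does not say whether a fall means rescue or toxicity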
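Fission yeast RE007 carrying one integrated HIV-1 vpr copy, seeded at OD 0.01 in PMG+AL medium with 23 nL pinned compound. Grown 24 h at 30 degrees; viability read by BacTiter-Glo luminescence after 5 min.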
MARV entry inh: Marburg virus entry inhibition; Potency, µM (doses to about 37.8 µM), without a hit: top-dose activity change, negative = inhibition, usual class: inhibitors; Marburg virus pseudotyped entry inhibition, cell reporter; control for the full effect not named in the record; about a third of the inactives were read at about 46 µM; actives 1.8% (n = 300,000); active = well fitted inhibition curve with a large enough effect; inconclusive = small, poorly fitted or top-dose-only effect, or effect the other way; inactive = flat fitted curve, though single readings scatter; tested in HEK293 cells; about a fifth of its hits are not listed in these tables; note: % is set by controls: 0 for no effect and ±100 for the full control effect; luciferase read-out
Cruzain Triton: blocks cruzain activity in presence of Triton detergent; P25779; purified cruzain, Z-FR-AMC fluorescence, 0.01% Triton; Potency, µM, for inactives: max response, negative = inhibition, most hits filed as inhibitors; actives 0.43% (n = 200,000); AID 1478; active = well fitted curve in the direction sought with a large enough effect; inconclusive = small, poorly fitted or top-dose-only effect, or another doubt; inactive = no such curve, though single readings can be large; an effect the other way counts as inactive or inconclusive;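 note: plate controls were neutral wells for no effect and buffer without enzyme for full effect; nearly all actives have a fitted effect of over 40% in size; top concentration of the series not given in the record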
Target sequence (P25779 123-467 limits assumed): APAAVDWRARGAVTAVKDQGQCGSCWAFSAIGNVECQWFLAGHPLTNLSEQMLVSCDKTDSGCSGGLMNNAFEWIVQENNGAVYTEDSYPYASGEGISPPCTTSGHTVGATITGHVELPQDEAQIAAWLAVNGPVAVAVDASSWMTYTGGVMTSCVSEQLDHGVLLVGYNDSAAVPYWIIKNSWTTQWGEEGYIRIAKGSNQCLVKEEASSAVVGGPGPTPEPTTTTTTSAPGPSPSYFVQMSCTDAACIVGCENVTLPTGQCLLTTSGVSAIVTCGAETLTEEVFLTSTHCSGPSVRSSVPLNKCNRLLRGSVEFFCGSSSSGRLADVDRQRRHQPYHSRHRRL
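Sodium acetate buffer (100 mM, pH 5.5) containing 5 mM DTT and 0.01% Triton X-100 hosted 1.5 nM cruzain and test compound for 15 min at room temperature. Cleavage of 2 uM Z-FR-AMC was then tracked by fluorescence.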
Cruzain noTriton: blocks cruzain activity in detergent-free assay | P25779 | purified cruzain, Z-FR-AMC fluorescence, no detergent | Potency, µM, for the others: max response, negative = inhibition, actives largely listed as inhibitors | actives 2.3% (n = 200,000) | AID 1476; active = well fitted curve in the direction sought with a large enough effect; inconclusive = small, poorly fitted or top-dose-only effect, or another doubt; inactive = no such curve, though single readings can be large; an effect the other way counts as inactive or inconclusive;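 note: plate controls were enzyme without inhibitor for no effect and buffer without enzyme for full effect; nearly all actives have a fitted effect of over 40% in size; top concentration of the series not given in the record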
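Detergent-free condition (0.00005% Triton X-100) in acetate buffer pH 5.5 with DTT. 1.5 nM enzyme and compound were pre-mixed 15 min, then 2 uM Z-FR-AMC substrate added; reaction progress from fluorescence change between first and third reads (60 s).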
NS1 inh: influenza NS1 inhibition. AID 2326. Potency, µM (highest dose often 46.1 µM), for the others: at the top dose activity, positive = more growth. S. cerevisiae slowed by influenza A NS1, growth recovery by OD600. actives 0.4% (n = 270,000); note: actives are rising curves; nearly all actives have a fitted effect of over 50% in size
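Recovery from NS1-induced slow growth read by OD600 in budding yeast switched to galactose assay medium (pH 6.0, -URA) at 1:100 dilution. Compound 23 nl per well; the matching strain lacking NS1 serves as control.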
* hit, by the source's call; [ ] = another dose, or the depositor's remark. Unless noted, calls come from the whole dose curve; as a rule, active means well fitted rising curve with a large enough effect; inconclusive means small, poorly fitted or top-dose-only effect; inactive means no such curve, though single readings can be large or run the other way. Potency is the fitted concentration of half-maximal effect.

Screening CCCOc1ccc(C(=O)NNC(=S)NC(=O)c2ccccc2[N+](=O)[O-])cc1 returned StopGo reporter 3%, LASV entry inh inconclusive, SARS PLpro yeast -2%, RE007 growth inh -4%, MARV entry inh -25% and NS1 inh -20%.
For Cn1c2ccccc2c2c(C(=O)N3CCN(c4ccccc4)CC3)cn(C3CCCC3)c(=O)c21 the results were StopGo reporter -3%, LASV entry inh inconclusive, SARS PLpro yeast 11%, RE007 growth inh 6%, MARV entry inh inconclusive, Cruzain Triton -4.2%, Cruzain noTriton inconclusive and NS1 inh 12%.
Cc1ccc(NC(=O)N2CCCC2C(=O)Nc2ccc(-n3cnnn3)c(C)c2)cc1 (stereo not given) was read as StopGo reporter -3%, LASV entry inh 3%, SARS PLpro yeast 1%, RE007 growth inh 3%, MARV entry inh 3%, Cruzain Triton 3.2%, Cruzain noTriton 2% and NS1 inh 14%.
Screening CCCCN(C)CCNC(=O)Cn1ncc2c(=O)oc3ccc(C)cc3c21 returned StopGo reporter -19%, SARS PLpro yeast 14%, RE007 growth inh -12%, Cruzain Triton -5.9%, Cruzain noTriton -6% and NS1 inh 4%.
For CC(C)(C)CC(=O)Nc1cc2c3c(c1)CCN3C(=O)CC2 the results were StopGo reporter -6%, SARS PLpro yeast 20%, RE007 growth inh 1% and NS1 inh 18%.
Screening Cc1ccccc1NC(=O)C(=O)NCCCN1CCCC1=O returned StopGo reporter 15%, LASV entry inh 18%, SARS PLpro yeast -4%, RE007 growth inh 0% and MARV entry inh inconclusive.
For Cn1cc(CN2CCCC(C(=O)c3ccc(-c4ccccc4)cc3)C2)cn1 (stereo not given) the results were StopGo reporter 8%, SARS PLpro yeast 0%, RE007 growth inh -15% and NS1 inh 1%.
CCC(=O)n1nc(-c2ccco2)nc1N was read as StopGo reporter -19%, LASV entry inh 2%, SARS PLpro yeast 8%, RE007 growth inh -1%, MARV entry inh 22%, Cruzain Triton 2.3%, Cruzain noTriton 2% and NS1 inh -9%.
Screening O=C(CNC(=O)C1CCCCC1)OCC(=O)c1ccc(Cl)s1 returned StopGo reporter 22%, LASV entry inh 3%, SARS PLpro yeast -2%, RE007 growth inh 0% and MARV entry inh -3%[46.1 µM].
`CCc1ccccc1N(CC)C(=O)c1cc2c(s1)-c1ccccc1SC2` gave StopGo reporter -25%, LASV entry inh inconclusive, MARV entry inh -16%[46.1 µM], Cruzain Triton -9.7% and Cruzain noTriton -9%.
`O=C(Nc1cccc(F)c1)C1CC(=O)N(c2ccc(Br)cc2)C1` (stereo not given) gave StopGo reporter inconclusive, LASV entry inh -9%, SARS PLpro yeast 4%, RE007 growth inh 19%, MARV entry inh -7%, Cruzain Triton -7.2%, Cruzain noTriton -4% and NS1 inh -16%.
COc1cc(OC)c2c(-c3ccccc3)cc(=O)oc2c1C(CCN1CCOCC1)c1ccc(N(C)C)cc1 (stereo not given) was read as StopGo reporter 42%[activator], SARS PLpro yeast 6%, RE007 growth inh -1%, Cruzain Triton 1.7% and Cruzain noTriton -4%.
For Cc1ccc(OCC(=O)Nc2cc(NC(=O)COc3ccc(C)cc3)cc(C(=O)O)c2)cc1 the results were StopGo reporter 18%, SARS PLpro yeast 4%, RE007 growth inh -17% and NS1 inh -2%.
COC(=O)c1cc2ccsc2n1CC(=O)Nc1cc(Cl)ccc1OC was read as LASV entry inh -22%, SARS PLpro yeast -2%, RE007 growth inh -4%, MARV entry inh -28%, Cruzain Triton -7.3%, Cruzain noTriton -18% and NS1 inh -12%.
`Clc1cccc(-c2nnc(-c3ccno3)o2)c1` gave StopGo reporter 32%[activator], SARS PLpro yeast 0%, RE007 growth inh inconclusive and NS1 inh -4%.
`Cc1ccccc1S(=O)(=O)c1c(C)cc(-c2ccccc2)[nH]c1=O` gave StopGo reporter 3%, LASV entry inh 8%, SARS PLpro yeast 0%, RE007 growth inh 6%, MARV entry inh -14%, Cruzain Triton -3.1%, Cruzain noTriton 4% and NS1 inh 10%.
CC(=O)Nc1ccc(S(=O)(=O)Nc2ccc(-c3cn4c(C)csc4n3)cc2)cc1 was read as StopGo reporter inconclusive, LASV entry inh -21%[46.1 µM], Cruzain Triton -4.0% and Cruzain noTriton inconclusive.
Screening COc1ccccc1C(CNC(=O)CSc1ccc2ccccc2c1)N(C)C (stereo not given) returned StopGo reporter inconclusive, LASV entry inh -2%, SARS PLpro yeast -1%, RE007 growth inh -5%, MARV entry inh inconclusive and NS1 inh 11%.
`O=C(CN1CCN(C2CCCCC2)CC1)Nc1ccc(Br)cc1` gave StopGo reporter -7%, LASV entry inh -5%, SARS PLpro yeast 1%, RE007 growth inh 30% and MARV entry inh -22%[46.1 µM].
For CCC/C=N/Nc1nnc(Cc2ccccc2)c(=O)[nH]1 the results were StopGo reporter 1%, LASV entry inh -4%, SARS PLpro yeast -3%, RE007 growth inh -1%, MARV entry inh 3% and NS1 inh 3%.
For COc1ccc(CC(=O)N2CC(=O)Nc3ccc(F)cc3C2c2ccccc2)cc1 (stereo not given) the results were StopGo reporter -7%, LASV entry inh -12%[46.1 µM], MARV entry inh -18%[46.1 µM], Cruzain Triton -2.1% and Cruzain noTriton 0%.
`O=C(O)c1ccc(N/N=C/c2ccc(OC(=O)c3ccccc3Cl)cc2)cc1` gave StopGo reporter 13µM*, LASV entry inh 0.71µM*, SARS PLpro yeast 0%, RE007 growth inh 15%, MARV entry inh inconclusive, Cruzain Triton -3.0%, Cruzain noTriton inconclusive and NS1 inh -13%.
O=[N+]([O-])c1ccccc1S(=O)(=O)Nc1nc2ccccc2s1 was read as StopGo reporter 110%[activator], LASV entry inh 3%, SARS PLpro yeast -3%, RE007 growth inh -14%, MARV entry inh inconclusive and NS1 inh 1%.
For O=C(CNC(=O)OCc1ccccc1)NCC(=O)Oc1ccc([N+](=O)[O-])cc1 the results were StopGo reporter -12%, LASV entry inh 0%, RE007 growth inh -6% and MARV entry inh 23%.
Cc1nc(NN)c2c3c(sc2n1)COC(C)(C)C3 was read as StopGo reporter 3%, LASV entry inh -9%, SARS PLpro yeast 1%, RE007 growth inh -14%, MARV entry inh inconclusive and NS1 inh 0%.
For COCC(C)NC(=O)C1c2ccccc2Oc2ccccc21 (stereo not given) the results were StopGo reporter -12%, SARS PLpro yeast 3%, RE007 growth inh -4% and NS1 inh inconclusive.
For Cc1ccc(Cl)cc1-n1c(=O)c2sc3ccccc3c2n(Cc2ccccc2)c1=O the results were StopGo reporter -18%, LASV entry inh 2%[46.1 µM], MARV entry inh 9%[46.1 µM], Cruzain Triton -0.7% and Cruzain noTriton 1%.
Screening O=C(c1ccc(SCc2cccc(Br)c2)c([N+](=O)[O-])c1)N1CCN(c2ccccn2)CC1 returned StopGo reporter -29%, LASV entry inh 18%, SARS PLpro yeast -8%, RE007 growth inh 1% and MARV entry inh inconclusive.
CCOc1ccc(Cn2c(CNS(=O)(=O)c3c(C)cc(C)cc3C)nc3cccnc32)cc1 was read as StopGo reporter 51%[activator], LASV entry inh -26%[46.1 µM], Cruzain Triton -5.5% and Cruzain noTriton -4%.
Screening O=C(Nc1ccc2[nH]ncc2c1)c1cccc(F)c1 returned StopGo reporter 31%[activator], LASV entry inh 19%, SARS PLpro yeast -2%, RE007 growth inh 13%, MARV entry inh 4% and NS1 inh -3%.
For COc1ccc(C2/C(=C(/O)c3ccccc3)C(=O)C(=O)N2CCCN2CCOCC2)cc1 (stereo not given) the results were StopGo reporter -2%, SARS PLpro yeast -8%, RE007 growth inh 13% and NS1 inh -1%.
Screening Cc1cc(C)cc(-n2ccnc2SCC(=O)Nc2ccc(C)c(Cl)c2)c1 returned StopGo reporter -20%, LASV entry inh 16%[46.1 µM], Cruzain Triton -9.4% and Cruzain noTriton 17%.
`O=C(NCCc1ccccc1)c1nn(-c2ccccc2F)nc1CO` gave StopGo reporter 0%, LASV entry inh -20%[46.1 µM], MARV entry inh 29%[46.1 µM], Cruzain Triton -0.9% and Cruzain noTriton 0%.
`O=C(CSCc1ccco1)c1cccs1` gave StopGo reporter 78%[activator], LASV entry inh inconclusive, SARS PLpro yeast 2%, RE007 growth inh inconclusive, MARV entry inh 11%, Cruzain Triton -1.3%, Cruzain noTriton -3% and NS1 inh 0%.
CCOC(=O)C(Cc1ccccc1)NC(C)=O (stereo not given) was read as StopGo reporter 3%, LASV entry inh -3%, SARS PLpro yeast 0%, RE007 growth inh 2%, MARV entry inh -11%, Cruzain Triton 1.8%, Cruzain noTriton -7% and NS1 inh 2%.
For CN1CCN(CCCC(=O)c2ccc(F)cc2)CC1 the results were StopGo reporter -15%, LASV entry inh -2%, SARS PLpro yeast 0%, RE007 growth inh -1%[3.69 µM], MARV entry inh -1%, Cruzain Triton 2.3%, Cruzain noTriton 0% and NS1 inh -3%.
`COc1cccc(Nc2ncc(C(=O)O)c3ccccc23)c1` gave StopGo reporter -12%, LASV entry inh 12%, SARS PLpro yeast -2%, RE007 growth inh -4%, MARV entry inh 9%[46.1 µM], Cruzain Triton -1.2%, Cruzain noTriton 0% and NS1 inh 5%.
`CCOC(=O)CCNC(=O)N1CCCC(C(=O)c2cccc(Cl)c2)C1` (stereo not given) gave StopGo reporter -12%, SARS PLpro yeast 1%, RE007 growth inh -5% and NS1 inh -2%.
For CCOc1ccccc1CNC(=O)C1CCN(c2nc3ccccc3o2)CC1 the results were StopGo reporter 0%, SARS PLpro yeast 22%, RE007 growth inh -15%, MARV entry inh -1%, Cruzain Triton -0.6%, Cruzain noTriton 3% and NS1 inh inconclusive.
COc1cc(-c2oc3ccc(C)cc3c(=O)c2O)cc(OC)c1OC was read as StopGo reporter -13%, LASV entry inh inconclusive, MARV entry inh inconclusive, Cruzain Triton -7.9% and Cruzain noTriton inconclusive.
`Cc1ccc(S(=O)(=O)NCCSC(C)(C)C)cc1` gave StopGo reporter 37%[activator], LASV entry inh 15%, SARS PLpro yeast -6%, RE007 growth inh -3%[3.69 µM], MARV entry inh 13%, Cruzain Triton 3.0%, Cruzain noTriton 4% and NS1 inh 2%.
